Screening results from PubChem BioAssay.
Vif TR-FRET = HIV-1 Vif–A3G interaction blockers – biochemical, TR-FRET, GST-Vif 1-94, biotin-A3G peptide, dose response retest, primary screen (AID 1117319); one-dose inhibition, %; IC50 in µM for titrated hits; 260,000 compounds, 0.57% hits; TR-FRET GST-Vif / biotin-A3G peptide binding; higher % means a stronger effect; test concentration not given here; strong numbers were not always called active;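 active = above the screen mean plus three standard deviations and confirmed in dose response; inconclusive = results disagree or hit not tested in dose response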;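 note: Vif residues 1-94 fused to GST binding biotinylated APOBEC3G peptide 110-148; 0% = full assay without inhibitor and 100% = GST in place of GST-Vif; retest series ran down from 100 µM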
UCH37 inh = blocks the human deubiquitinase UCH37. 330,000 compounds, 0.33% hits. purified proteasome/UCH37, Ub-AMC cleavage fluorescence. Q9Y5K5. AID 588478. inhibition, % (no concentration beside the values);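 active = mean of two replicates above 20%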;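 note: 0% = compound-free wells with enzyme and 100% = wells lacking proteasome; stock transfer was 100 nL into about 20 µL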
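Reagent: Ub-AMC substrate; assay system: Proteasome-associated human UCH37 deubiquitinase; controls: no-proteasome and no-compound wells; read-out: % inhibition of Ub-AMC cleavage fluorescence; timing: 30 min preincubation with enzyme, 25 min cleavage at room temperature; signal: AMC fluorescence from Ub-AMC cleavage, excitation 355 nm, emission 460 nm; buffer or medium: Tris-HCl pH 7.4 plus ovalbumin, ATP-MgCl2, DTT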
Ecoli growth = E. coli growth inhibition; Escherichia coli growth, OD600, 23 h; stronger effect = lower value; OD600 absorbance (concentration not given with the values); 330,000 compounds, 0.21% hits; AID 1053175;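 active = OD600 absorbance below the run mean of sample wells minus 3.6 SD, in any replicate, cut at about 0.56 in these data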;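 note: stock transfer was 300 nL into about 60 µL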
HNF4A DNA FP = change in binding of human HNF4 alpha to DNA; AID 1224865; activity change, % at 10 µM; HNF4a-FITC DNA binding, fluorescence polarization, 1 h; 360,000 compounds, 0.3% hits; P41235; in the data active = activity change above about 30%, passing the limit was not always enough;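 note: controls were the assay level and a saturating level of protein; the project sought stronger binding though the title names inhibitors; some compounds called inactive have numbers as strong as hits; positive values seem to mean higher polarization but the record does not say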
Target sequence (P41235 whole entry, looked up): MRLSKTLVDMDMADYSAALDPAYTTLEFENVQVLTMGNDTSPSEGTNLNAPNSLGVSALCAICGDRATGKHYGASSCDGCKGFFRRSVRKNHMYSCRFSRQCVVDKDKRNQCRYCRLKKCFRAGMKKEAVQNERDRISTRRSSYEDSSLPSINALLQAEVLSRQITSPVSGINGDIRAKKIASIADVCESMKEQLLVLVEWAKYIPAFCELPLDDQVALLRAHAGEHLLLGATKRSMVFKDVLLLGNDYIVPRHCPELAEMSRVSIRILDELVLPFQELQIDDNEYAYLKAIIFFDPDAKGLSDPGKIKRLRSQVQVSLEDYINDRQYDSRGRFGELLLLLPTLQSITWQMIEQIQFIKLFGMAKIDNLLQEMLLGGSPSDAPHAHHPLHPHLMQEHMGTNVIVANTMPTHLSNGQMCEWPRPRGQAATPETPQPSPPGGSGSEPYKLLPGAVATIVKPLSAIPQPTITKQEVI
Beta2AR agonist = human beta-2 adrenergic receptor agonism by FAP; P07550; Am2.2-beta2AR cells, FAP receptor internalization, flow cytometry; reference of the scale not given here; response, % (no concentration beside the values); 340,000 compounds, 0.43% hits; AID 504454;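 active = response above a set limit, near 3 SD of response in nonfluorescent compounds, cut at about 42% in these data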;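 note: stock transfer was 100 nL into about 11 µL; a reference agonist was the positive control; negative values mostly stem from fluorescent compounds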
Target sequence (P07550 whole entry, looked up): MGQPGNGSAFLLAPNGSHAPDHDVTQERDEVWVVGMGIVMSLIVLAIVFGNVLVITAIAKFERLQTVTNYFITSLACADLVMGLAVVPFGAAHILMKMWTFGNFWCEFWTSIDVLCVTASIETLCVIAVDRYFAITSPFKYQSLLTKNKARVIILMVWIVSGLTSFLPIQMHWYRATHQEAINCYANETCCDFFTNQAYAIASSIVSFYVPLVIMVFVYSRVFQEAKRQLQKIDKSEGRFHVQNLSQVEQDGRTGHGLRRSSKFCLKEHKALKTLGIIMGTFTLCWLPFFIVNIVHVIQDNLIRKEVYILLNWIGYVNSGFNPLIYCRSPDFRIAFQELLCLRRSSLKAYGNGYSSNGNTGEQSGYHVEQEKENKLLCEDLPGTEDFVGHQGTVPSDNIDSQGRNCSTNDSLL
LANA-H2B inh = blocks KSHV LANA binding to histone H2A/H2B. Q9QR71. inhibition, % (test concentration not listed). cell-free LANA-H2A/H2B peptide, fluorescence polarization. AID 2629. 320,000 compounds, 0.6% hits; in the data active = inhibition mostly above about 10%, no sharp cut-off; inactive = mostly below about 6.7%;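 note: stock transfer was 7.5 nL into about 10 µL; 0% = median of vehicle wells and 100% = median of positive control wells; one replicate is shown; the record names a cut of 25% in any replicate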
A1 inh = inhibitors of the anti-apoptotic protein A1, read as caspase activation | caspase activation, % (test concentration not listed) | MEF A1-2A-BIM cells, Caspase-Glo 3/7 luminescence, 3 h; percent of clofoctol response, vehicle zero | AID 2462 | 330,000 compounds, 0.066% hits;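 active = over half of replicate activation scores above 10%, or exactly half above 10 with the replicate mean above 10; inconclusive = replicate mean below 10 yet half the replicates above 10; inactive = over half of replicates below 10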;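 note: wells of about 30 µL received 50 nL stock; many hits fall short of the cut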
The depositor's hits bear a star; i = inactive; ? = inconclusive; / = not tested or not shown; & = joins results of further samples. Rows are unselected (roughly 2.1% active in at least one column).

SMILES	Vif TR-FRET	UCH37 inh	Ecoli growth	HNF4A DNA FP	Beta2AR agonist	LANA-H2B inh	A1 inh
CC(C)CC1NC(=O)N(CCCCN2C(=O)c3ccccc3C2=O)C1=O (stereo unspecified)	2.7%	1.3	0.702	-1.6	-5.7	-1.0	-0.3
C=CCOc1cccc(C2c3c(oc4ccccc4c3=O)C(=O)N2c2ccccn2)c1 (stereo unspecified)	0.3%	3.9	0.773	0.6	-7.7	-1.7	-0.7
Cc1ccc(S(=O)(=O)NCc2ccncc2)cc1C(=O)NCC(C)C	5.5%	3.2	0.698	4.0	0.0	4.2	0.0
CCOc1ccc(-c2nc(-c3cccnc3)no2)cc1	3.2%	5.1	0.653	0.3	2.8	6.7	-14.8
COc1cc(Cl)ccc1OCc1cc(C(=O)NC(C)Cc2cccnc2)no1 (stereo unspecified)	3.0%	1.1	0.657	1.4	0.6	0.6	-0.8
O=C(CSc1nnnn1-c1ccc2c(c1)OCO2)NCc1cccs1	5.1%	-2.4	0.713	1.1	-5.6	3.2	-0.1
COc1cc([N+](=O)[O-])ccc1NC(=O)NCc1ccco1	/	5.6	0.61	8.3	-2.5	1.7	0.5
CCOc1ccccc1-n1ccn(CC(=O)Nc2ccc(Br)cc2F)c(=O)c1=O	0.7%	0.5	0.627	-1.3	-1.8	/	/
CCc1ccc(OCC(=O)NC(=S)Nc2ccc(C(C)=O)cc2)c(Br)c1	-1.3%	2.3	0.691	-2.2	10.4	-5.5	0.4
COC(=O)C1(C)NC(c2ccccc2C)C2C(=O)N(c3ccc(F)cc3)C(=O)C21 (stereo unspecified)	-11.6%	/	/	2.1	-1.6	2.9	-0.2
CCc1ccccc1NC(=O)CN(C)Cc1c(O)ccc2ccccc12	/	5.0	0.654	2.7	-6.8	0.4	0.8
O=C(OCC1OC2C(Oc3nc(=O)ccn32)C1O)c1ccccc1 (stereo unspecified)	-2.8%	0.1	0.685	2.3	7.1	-0.7	-0.3
O=c1[nH]c2cc3c(cc2cc1C(c1nnnn1CC1CCCO1)N1CCCC1)OCO3 (stereo unspecified)	7.8%	-267.3	0.684	-1.6	-6.7	4.5	0.5
CS(=O)(=O)Nc1ccc(S(=O)(=O)NC2CCCCC2)cc1	-11.4%	1.6	0.697	2.2	-3.0	0.0	0.2
CCOc1cc(-c2nnc(NC(=O)C3=COCCO3)o2)cc(OCC)c1OCC	-0.9%	4.4	0.707	-1.0	3.3	0.6	-0.3
Cc1ccc(/C=C2/CCc3c([nH]c4ccccc34)C2=O)cc1	1.5%	-1.4	0.686	8.9	-0.6	-3.8	-5.4
Nc1cccc(NC(=O)CN2CCOCC2)c1	/	5.0	0.651	-0.5	1.4	-2.5	0.3
CC(C(=O)N1CCN(Cc2ccccc2)CC1)c1ccc([N+](=O)[O-])cc1 (stereo unspecified)	14.7%	0.7	0.732	3.6	4.7	-2.5	1.2
CCc1ccc(-n2c(C)cc(/C=N/NC(=O)OC)c2C)cc1	/	/	/	9.3	-28.2	-0.8	0.5
COC(=O)C1=C(C)NC(C)=C(C(=O)OC)C1c1ccc2ccccc2n1	-2.2%	-0.2	0.713	-2.2	-0.9	0.8	0.5
O=C(Nc1ccc(F)cc1F)NC1CC(=O)N(Cc2ccccc2)C1 (stereo unspecified)	27.3%	0.8	0.638	-1.9	5.4	0.7	0.4
COc1ccc(C(C#N)Nc2ccccc2OC)cc1 (stereo unspecified)	7.2%	5.3	0.66	-0.3	4.2	1.5	-0.2
CCSc1nc2sc3c(c2c(=O)n1-c1ccc(C)cc1)CCN(C)C3	4.8%	-20.3	0.672	5.9	1.5	/	/
Cc1cc(C)c(S(=O)(=O)NC2CC3CCC2C3)c(C)c1 (stereo unspecified)	/	3.2	0.641	2.2	0.1	0.6	0.6
Cc1csc(SC(C)C(=O)NCC2CCCCC2)n1 (stereo unspecified)	2.8%	1.8	0.68	-1.4	-15.4	-1.7	0.1
COc1cccc(NC(=O)CCC2CCN(C(=O)c3scnc3C)CC2)c1	-5.9%	1.7	0.693	9.2	-7.0	7.3	-0.2
COc1ccc(-n2c(Cc3cccn3C)nnc2SCC(=O)N2CCC(C)CC2)cc1	?	2.9	0.733	1.4	-1.5	4.2	0.0
CC1CCN(C(=O)CSc2nnc(CNC(=O)COc3ccc(Cl)cc3)o2)CC1	32.4%	1.7	0.742	1.7	1.2	-1.1	-0.2
CCOC(=O)C1CCCN(C(=O)c2ccc(S(=O)(=O)N3CCCC3)cc2)C1 (stereo unspecified)	1.9%	2.9	0.622	0.4	1.0	1.8	-0.2
Cc1nccn1S(=O)(=O)c1cc([N+](=O)[O-])ccc1Cl	4.4%	3.4	0.652	2.4	5.8	-1.6	-0.1
CCOC(=O)C1CCCN(C(=O)c2ccc3c(c2)N(C)C(=O)/C(=C/c2ccccc2Cl)S3)C1 (stereo unspecified)	7.5%	-7.5	0.662	5.3	9.8	10.3	0.8
Cc1ccccc1OCC(=O)NNC(=O)c1cc(S(=O)(=O)N2CCOCC2)ccc1N1CCCC1	/	0.0	0.648	4.2	-6.4	1.8	-0.1
C/C(=N\N=C(/N)SC1CC(=O)N(c2ccccc2)C1=O)c1cccs1 (stereo unspecified)	2.1%	/	/	-0.2	0.5	1.6	-0.3
Cc1ccc2c(c1)N(CCCC(=O)NCCC1=CCCCC1)C(=O)CO2	-3.5%	0.9	0.72	0.8	-1.2	3.3	0.5
CC1CC(CC(C)C(=O)Nc2nncs2)C(=O)O1 (stereo unspecified)	-0.3%	1.6	0.759	1.1	4.0	-10.1	0.2
O=C(NN1C(=O)c2cc(Br)ccc2NC1c1ccccc1Cl)c1ccncc1 (stereo unspecified)	/	/	/	-1.3	-5.2	-1.2	-0.8
C(#Cc1ccc(C#CCN2CCCC2)cc1)CN1CCCC1	-0.7%	-0.3	0.694	3.8	-3.1	/	/
CC(C)C(NC(=O)c1ccccc1)C(=O)NCc1ccccn1 (stereo unspecified)	9.8%	-0.4	0.656	-2.2	3.4	-12.8	-0.8
COc1ccc(CNCc2ccc(C(F)(F)F)cc2)cc1OC	-2.0%	3.1	0.623	0.8	3.1	-3.9	0.7
O=C(CSc1nc2c(sc3ccccc32)c(=O)n1CCCN1CCOCC1)NC1CCCC1	-2.2%	1.8	0.744	-2.3	-5.1	5.5	0.4
COc1cccc(NC(=O)Nc2ccc(Br)cn2)c1	?	1.0	0.715	7.9	-7.7	5.4	-1.7
O=C1Nc2ccccc2C12OC1CCCCC1O2 (stereo unspecified)	-3.2%	4.1	0.703	0.3	1.5	-2.0	0.7
Nc1c(C(=O)NCc2ccco2)sc2nc3c(cc12)C(=O)CCC3	?	8.2	0.759	-10.1	3.0	/	/
COc1ccc(OCc2cc(C(=O)NCCc3ccccc3)no2)c(Cl)c1	/	3.5	0.72	0.9	-8.7	1.2	-0.2
Cc1cc(=O)oc2cc(NC(=O)c3ccccc3Cl)ccc12	/	i	0.678	-1.6	-4.6	-11.9	-4.5
CN(C)c1ccc2c3c(ccc(N(C)C)c13)COC2	6.0%	-1.5	0.644	4.8	-3.0	-2.8	-0.5
CC(C)Sc1cc(N2CCOCC2)nc(-c2ccccc2)n1	-0.7%	0.5	0.677	1.8	12.2	3.1	0.9
CCCCOC(=O)c1ccc(NC(=O)CSCc2n[nH]c(=O)[nH]2)cc1	-6.1%	0.3	0.688	-0.2	6.0	-1.5	1.1
COc1ccc(CCCC(=O)N/N=C/c2cccc(OC)c2O)cc1C	-12.6%	/	/	-2.8	7.9	-0.8	0.4
CCn1cc(CN(C)C(=O)/C=C/c2ccc([N+](=O)[O-])cc2)c(C)n1	/	6.5	0.669	0.9	2.3	2.1	-0.2
O=C(O)CCc1nn2c3ccccc3nc2n(-c2ccccc2)c1=O	-2.9%	1.1	0.684	2.4	-5.8	-6.8	0.0
Cc1ccc(-c2nnn3c2nc(NC(C)C)c2ccccc23)cc1	-34.1%	-180.7	0.685	-3.0	15.0	-4.5	1.0
Cc1c(OC(C)C(=O)NCCCN2CCCC2=O)ccc2c3c(c(=O)oc12)CCCC3 (stereo unspecified)	-1.8%	-41.5	0.684	2.3	-12.9	0.0	-0.8
C=CCN1C(=Nc2ccccc2)SC/C1=C\C(=O)OC	-8.2%	5.2	0.672	-1.6	6.1	-6.3	-0.6
CSc1cnn(Cc2ccccc2)c(=O)c1SCc1ccccc1	-7.6%	4.4	0.682	-0.3	1.7	4.4	-0.5
O=C(O)c1cccc(NC(=S)NCc2ccccc2)c1	/	4.1	0.664	1.8	0.1	-0.9	0.1
Cc1cccc(OCC(=O)Nc2ccc(N3CCCC3)cc2)c1C	/	2.5	0.671	2.6	7.9	3.3	1.1
Cc1cccnc1NC(=O)C1CCN(S(=O)(=O)c2ccc3ccccc3c2)CC1	-0.4%	4.8	0.715	-0.1	0.5	2.2	0.5
CC(=O)c1ccc(OCc2cccc(C(F)(F)F)c2)cc1O	-2.3%	2.8	0.704	0.8	7.7	3.5	0.3
CCCCCC(=O)N1CC2(CC(c3cccc(NC(=O)CC)c3)=NO2)C[C@H]1C(N)=O (stereo partly specified)	-0.4%	3.3	/	-1.5	7.0	3.3	-1.0

Other compounds.
SMILES	Vif TR-FRET	UCH37 inh	Ecoli growth	HNF4A DNA FP	Beta2AR agonist	LANA-H2B inh	A1 inh
CC(=O)NC(CCS(C)(=O)=O)C(=O)Nc1nccs1 (stereo unspecified)	-1.5%	4.4	0.736	3.3	2.5	2.9	-0.3
c1ccc(-c2ccc(-c3cnc4n3CCCCC4)cc2)cc1	-1.7%	-0.3	0.645	-2.8	-5.7	1.5	-0.4
CCOC(=O)c1ccc(NC(=O)CN2C(=O)NC3(CCCCCC3)C2=O)cc1	-4.6%	1.2	0.721	0.1	22.5	6.5	0.6
CC(C)NC(=O)N1CCCN(c2nc3ccc(Cl)cc3s2)CC1	/	5.1	0.638	3.0	-4.7	-3.8	-1.4
CNc1nc(Oc2ccccc2C(=O)OC)nc(SC)n1	-3.1%	2.0	0.715	3.0	5.1	-5.4	1.2
CC(C)CCC(CCN1CCCC1)c1ccc2c(c1)OCO2 (stereo unspecified)	/	2.9	0.705	-1.0	-7.3	1.6	0.4
CCCc1sc(N/N=C/c2ccccn2)nc1-c1ccc(Br)cc1	14.0%	/	/	0.2	-3.4	0.1	-0.3
Cc1nnc2c3ccccc3ccn12	-0.7%	/	/	-2.4	-3.1	/	/
Fc1ccccc1-c1nc(-c2ccc(-c3nn[nH]n3)cc2)no1	/	0.2	0.686	3.9	2.6	-1.6	-10.8
c1ccc(-c2nnc3n2NC(c2ccc4c(c2)OCO4)S3)cc1 (stereo unspecified)	-10.8%&2.2%	2.0	0.671	-0.8	-6.0	-3.5	0.4
O=c1nc(NCc2ccco2)sc2ncccc12	-8.1%	3.7	0.664	-1.5	-1.8	-3.9	0.2
CC(C)c1cccc(C(C)C)c1NC(=S)Nc1cccc(Cl)c1	-1.9%	0.8	0.662	-6.4	1.1	-3.0	0.4
COc1ccccc1-c1nnc(NC(=O)c2ccc3ncsc3c2)o1	/	/	/	-0.1	-0.3	-3.2	-0.5
CCNC(=O)COC(=O)c1cc(C)nc2ccccc12	/	-0.5	0.73	-3.6	5.3	-1.3	0.0
O=C(Nc1cccc(F)c1)/C(=C\c1cccnc1)NC(=O)c1cccs1	-2.8%	4.6	0.725	-4.7	0.0	5.4	-0.8
